# Assay outcomes: PubChem, several laboratories
# MT1-MMP act inh: blocks activation of human MT1-MMP. P50281. HT1080 RFP-PRO-GFP cells, GFP/RFP ratio fluorescence, overnight; percent of plate control window, DMSO zero. GFP/RFP ratio change, % at 20 µM. 360,000 tested, 0.061% active. AID 651647;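 active = GFP/RFP ratio change of at least 30% with cell ATP level not reduced by more than half and red fluorescence within 50% of control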; note: strong numbers were not always called active
#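 Assay system – RFP-PRO-GFP reporter HT1080 cells · Compound dosing – single dose of 20 µM compound, 1% DMSO final · Incubation – overnight compound exposure at 37 °C · Measure – GFP/RFP fluorescence ratio · Benchmarks – DMSO wells and RFP-L50D-GFP cells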
# Rce1 inhib: inhibitors of yeast Ras-converting enzyme; Q03530; yeast membranes, quenched prenylated peptide cleavage fluorescence; calls only; 290,000 tested, 0.27% active;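 active = fall in fluorescence gain of 50% or more versus controls, with final raw signal at or below 3038400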;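 note: plate controls were neutral control wells for no effect and wells lacking membranes for full effect; tested at 10 µM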
# Target sequence (Q03530 whole entry, looked up): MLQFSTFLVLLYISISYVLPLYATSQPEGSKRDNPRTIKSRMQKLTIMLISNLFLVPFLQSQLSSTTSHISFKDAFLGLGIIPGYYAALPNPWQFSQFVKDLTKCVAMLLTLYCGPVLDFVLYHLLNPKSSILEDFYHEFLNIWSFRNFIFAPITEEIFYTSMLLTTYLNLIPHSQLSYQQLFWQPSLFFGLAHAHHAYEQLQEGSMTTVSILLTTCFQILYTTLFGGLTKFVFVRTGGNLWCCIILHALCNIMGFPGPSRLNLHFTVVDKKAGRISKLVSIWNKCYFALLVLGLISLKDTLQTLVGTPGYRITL
# Yeast UUG start: yeast start codon fidelity modulation. 350,000 tested, 0.13% active. activity score, % at 18.7 µM. S. cerevisiae UUG-firefly luciferase reporter, luminescence/redox ratio;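 active = replicate mean at a twofold rise or more, about +100% in these data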;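 note: firefly luciferase made from a UUG start codon reports start codon fidelity; reporter light over untreated wells divided by growth signal over untreated wells; some hits fall short of that in this replicate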
# PABP polyA inh: PABP-poly(A) binding inhibition | P11940 | PABP-poly(A) RNA binding, fluorescence polarization | inhibition, % at 35 µM | 290,000 tested, 1% active;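 active = 50% or more with normal probe brightness, or confirmed in later tests; about a fifth of its hits are not listed in these tables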;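 note: calls also rest on retests at 20 µM and on dose response follow-up; controls were probe without protein and protein plus probe with vehicle; some compounds called inactive have numbers as strong as hits; many hits fall short of the cut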
# Target sequence (P11940 whole entry, looked up): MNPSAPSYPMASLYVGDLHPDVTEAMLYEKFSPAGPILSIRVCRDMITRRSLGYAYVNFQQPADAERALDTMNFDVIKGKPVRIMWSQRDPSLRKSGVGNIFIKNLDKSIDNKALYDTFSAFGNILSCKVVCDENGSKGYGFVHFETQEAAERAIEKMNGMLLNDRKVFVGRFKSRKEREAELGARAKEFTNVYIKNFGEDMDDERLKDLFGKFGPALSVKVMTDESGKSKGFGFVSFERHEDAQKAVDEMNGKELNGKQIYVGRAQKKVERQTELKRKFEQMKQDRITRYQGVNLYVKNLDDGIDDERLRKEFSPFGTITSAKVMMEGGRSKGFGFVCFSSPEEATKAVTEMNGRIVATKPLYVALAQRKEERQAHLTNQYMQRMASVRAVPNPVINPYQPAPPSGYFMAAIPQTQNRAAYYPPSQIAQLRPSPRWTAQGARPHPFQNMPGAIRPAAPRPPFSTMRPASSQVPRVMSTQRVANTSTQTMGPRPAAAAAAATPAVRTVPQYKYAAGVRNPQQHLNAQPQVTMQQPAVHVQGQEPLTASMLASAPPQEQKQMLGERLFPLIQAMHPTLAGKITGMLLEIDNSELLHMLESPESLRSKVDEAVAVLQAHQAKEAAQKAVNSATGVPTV
# Env fusion inh: inhibitors of HIV Env-mediated cell fusion | HeLa-JRFL Env/CEM21 cell fusion, luciferase | inhibition, % at 12.3 µM | 360,000 tested, 1.1% active | AID 651610;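 active = mean replicate inhibition score of at least 50 and every replicate individually at or above 50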;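 note: 0% = plate neutral controls and 100% = maraviroc near 300 nM; one replicate is shown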
# eIF4H inh: inhibitors of RNA binding by human eIF4H | Q15056 | eIF4H fluorescence polarization binding assay | inhibition, % at 35 µM | 290,000 tested, 0.94% active | AID 2012;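 active = 50% or more with normal probe brightness, or confirmed in later tests; about a fifth of its hits are not listed in these tables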;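 note: calls also rest on retests at 20 µM and on dose response follow-up; 0% = protein and probe with vehicle and 100% = probe without protein; strong numbers were not always called active; many hits fall short of the cut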
# CSC inhib: cancer stem cell inhibition; cancer stem cell-like cells viability, luminescence; inhibition, % at 7.5 µM; 300,000 tested, 1.1% active;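 active = mean at 75% or more and at least half the replicates too; tested in HMLE shEcad cells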;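 note: 0% = median of negative and 100% = median of positive control wells; the first replicate is given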
# eIF4H inh retest: further read-out of eIF4H inh, marked with its call; inhibition, %; compound at 20 µM; confirmation average;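 mean of two retest wells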
# PABP polyA inh retest: recorded beside PABP polyA inh, whose call it bears; inhibition, %; compound at 20 µM; confirmation repeats;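 mean of two retest wells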
# MT1-MMP act inh RFP: also measured in MT1-MMP act inh; calls as there; RFP signal change, %; measured here: RFP expression control read;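 0 = vehicle wells; hits needed this value within 50% of zero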
# Active calls of the source: *; i = inactive; x = no result given; + = active, no number. The order is random; 3% or so of the library scored in one or more.
SMILES,MT1-MMP act inh,MT1-MMP act inh RFP,Rce1 inhib,Yeast UUG start,PABP polyA inh,Env fusion inh,eIF4H inh,CSC inhib,others
Nc1ccc(S(=O)(=O)NC2(C(F)(F)F)NC(=O)N(c3ccc(F)cc3)C2=O)cc1 (stereo unspecified),2,8,i,-8,-5,-2,-13,x,
Cn1c(=O)[nH]c(=O)c2c1ncn2CCCc1ccccc1,2,4,i,-13,-5,x,-2,15,
CC(C)c1c(C(=O)N/N=C/c2c[nH]c3ccccc23)nnn1-c1nonc1N,-2,-4,+,-7,-1,-1,-5,-1,
O=C(NCCc1c[nH]c2ccccc12)c1ccc2[nH]c(=O)c(=O)[nH]c2c1,-1,5,i,-1,-4,6,8,x,
O=C(NNc1cc(Br)c(O)c(Br)c1)c1ccccc1,1,5,i,x,-1,6,-3,-4,
Cc1ccccc1NC(=O)C(=O)Nc1ccccc1C,2,1,i,-19,-3,-58,4,1,
O=C1N/C(=C/c2ccc(N3CCOCC3)o2)C(=O)N1c1ccccc1,-5,6,x,x,1,-27,9,80*,
Cc1cc(C)c(OCC(=O)OCC(=O)N2CCCc3ccccc32)c(C)c1,3,2,i,-4,x,-10,x,-12,
COC(=O)[C@H](CCSC)NC(=O)[C@@H](Cc1cnc[nH]1)NC(=O)OCc1ccccc1,0,2,i,-11,12,11,-6,-10,
CCCn1c(C)cc(C(=O)CSc2nc3nc(C)cc(C)n3n2)c1C,3,-5,i,-10,0,x,48,x,
COc1ccc(N2CCC(CNC(=S)Nc3cc(C)ccc3C)C2)cc1 (stereo unspecified),-1,-4,i,-26,-2,8,-12,1,
O=C1CCN(Cc2ccccc2)CCN1CCO,-1,3,i,-11,-7,-4,-4,-9,

# The closing two entries of the part above come first, to join the parts:
SMILES,MT1-MMP act inh,MT1-MMP act inh RFP,Rce1 inhib,Yeast UUG start,PABP polyA inh,Env fusion inh,eIF4H inh,CSC inhib,others
COc1ccc(N2CCC(CNC(=S)Nc3cc(C)ccc3C)C2)cc1 (stereo unspecified),-1,-4,i,-26,-2,8,-12,1,
O=C1CCN(Cc2ccccc2)CCN1CCO,-1,3,i,-11,-7,-4,-4,-9,
O=C(C[C@@H]1C/C=C\C[C@@H](Cc2ccc(F)cc2)C(=O)OC[C@@H]2CCCN2C1=O)NCCO,0,4,x,-2,x,8,x,x,
COc1ccc2oc(=O)c(C(=O)N3CCN(c4ccccc4F)CC3)cc2c1,-3,1,i,-8,6,-2,12,-1,
CCc1nnc(NC(=O)c2cc(-c3ccco3)nc3ccccc23)s1,-9,3,i,-14,-8,-4,76*,0,eIF4H inh retest=90*;PABP polyA inh retest=17
Fc1ccc(/C=N/Nc2nc3ccccc3[nH]2)cc1F,15,-8,i,x,-5,-43,43,-3,
COc1ccccc1C/C(N)=N/OC(=O)COc1ccccc1C,6,3,i,0,11,x,9,-7,
Cc1ccc(CN2CCC(n3nccc3NC(=O)CCOc3ccccc3)CC2)cc1C,4,-2,i,-4,x,5,x,-3,
CC(C)CCOC(=O)C1C(c2ccccc2)C(C(=O)O)C1c1ccccc1 (stereo unspecified),1,0,i,-11,-1,-6,10,3,
Cc1cc(=O)oc2n[nH]c(-c3ccccc3)c12,4,5,i,x,4,x,-11,6,
CC(OC(=O)CSc1ccc([N+](=O)[O-])cc1)C(=O)NCc1ccco1 (stereo unspecified),1,-1,i,-9,x,-10,x,-9,
COc1ccc(C(=O)OCc2csc(C)n2)c(O)c1,3,1,i,x,36,-26,-5,-6,
CCOC(=O)N1CCN(C(=O)C(CC(C)C)NC(=O)C2CCCCC2)CC1 (stereo unspecified),0,4,i,6,2,11,-2,-21,
CCOC(=O)CNC(=O)c1ccc(SCC)cc1,-2,0,i,-4,-1,-5,-8,x,
Cc1cc(C(=O)OCC(=O)Nc2cc(S(=O)(=O)N(C)C)ccc2C)c(C)o1,x,x,i,x,4,-9,-6,x,
O=C(NC(=S)N1CCN(C/C=C/c2ccccc2)CC1)c1ccc(Cl)nc1,11,-7,i,-12,0,15,-8,3,
O=C(O)/C=C/c1cn(-c2ncc(C(F)(F)F)cc2Cl)c2ccccc12,-1,-1,i,-11,7,-6,-4,3,
CCOC(=O)C1CCCN(C(=O)c2cc3c(OC)c(OC)c(OC)cc3[nH]2)C1 (stereo unspecified),1,3,i,7,12,-5,-10,-6,
CC(=O)c1ccc(N2C(=NC(=O)C3CCCO3)SC3CS(=O)(=O)CC32)cc1 (stereo unspecified),0,5,i,-13,-7,-4,-6,1,
Cc1cc(N2CCN(c3ccc(C(F)(F)F)cc3[N+](=O)[O-])CC2)c2ccccc2n1,9,-16,i,-5,6,21,0,97*,
O=C(C[n+]1cc(-c2ccc(F)cc2)n2c1CCC2)OCc1ccccc1,1,3,i,x,0,-8,3,-4,
Cc1cc(C)n(-c2nc3sc4c(c3c(=O)[nH]2)CCCC4)n1,x,x,i,x,-2,x,6,x,
COc1ccc(C(=O)Oc2ccc3oc(=O)sc3c2)cc1,1,-3,i,-13,-7,-33,-9,-3,
COC(=O)CSc1nc(N2CCOCC2)c2c(c1C#N)CC(C)(C)OC2,-3,-3,i,-8,-4,5,-8,11,
COc1ccc(S(=O)(=O)Nc2cc3c(cc2C(C)=O)OCO3)cc1,-9,-13,i,x,2,-15,-10,62,
CCOc1cc(/C=C/C(=O)OCC(=O)NCc2ccco2)cc(Cl)c1OC,2,0,i,x,x,x,x,15,
NC(CCc1ccccc1)c1csc(NC(=O)NCC2CCCCC2)n1 (stereo unspecified),1,-7,x,-6,x,-8,x,x,
O=C(O)CSc1nccc2ccccc12,0,-2,i,x,0,-1,-1,2,
Cn1c(=O)c2c(ncn2CC(=O)N2CCN(c3cccc(Cl)c3)CC2)n(C)c1=O,-4,-8,i,-6,-6,x,-9,0,
O=C(COc1ccccc1)Nc1cccc2nsnc12,-8,-5,i,-1,0,-84,4,2,
O=C(NN=Cc1cc(Br)c(O)c(Br)c1)c1ccccc1NS(=O)(=O)c1cccs1,6,5,x,-15,x,0,x,11,
COc1cccc(/C=N/NC(=O)c2c(C)nc3ccc(Cl)cn23)c1O,-7,-8,i,-25,2,-43,6,71,
O=C(O)c1cc2c(ccc3ccccc32)o1,-4,-1,i,-16,-2,x,-8,-13,
CC(Sc1ncnc2c1cnn2-c1ccccc1)C(=O)NCC1CCCO1 (stereo unspecified),-1,-5,i,-9,-13,-7,-13,x,
CN(C1CCCCC1)S(=O)(=O)c1ccc(SCC(N)=O)nc1,-1,4,x,-4,x,-13,x,x,
Cc1cccc(C)c1OC(=O)CSc1nnc(-c2ccccc2)o1,0,3,i,-21,-4,x,-10,14,
CC1(C)CC2(CCO1)OC(=O)CC2C(=O)Nc1ccc(Br)cc1 (stereo unspecified),1,1,i,-9,7,5,14,-3,
CS(=O)(=O)c1ccc(C(=O)NC(Cc2ccccc2)c2ccccc2)cc1 (stereo unspecified),-1,-3,i,-3,4,-5,0,-2,
O=C(O)c1ccc2c(c1)C(=O)/C(=C\c1ccco1)C2=O,-2,1,i,x,-10,-10,107,8,eIF4H inh retest=16;PABP polyA inh retest=39
O=C(c1ccccc1)c1cc2cc(Cl)ccc2[nH]1,-5,-5,i,-13,3,-34,-3,0,
O=C(/C=C/c1ccc(Br)cc1)NC(=O)c1ccccc1O,0,-6,x,8,-5,-98,-4,-12,
Cn1cc(C(=O)Nc2ccc(F)c(F)c2)cn1,-2,3,i,9,-8,x,-9,x,
CN(C)c1cccc(C(=O)OCC(=O)N2CCc3ccccc3C2)c1,0,1,i,x,9,2,-2,11,
O=C(COc1ccc([N+](=O)[O-])cc1)Nc1nc(-c2ccccn2)cs1,-23,1,i,-26,x,43,x,55,
C/C(=C1/SC(N2CC(C)OC(C)C2)=NC1=O)c1ccccc1 (stereo unspecified),-3,-1,i,-2,-5,-33,-1,-3,
Cc1csc(SC(C)C(=O)NCC2CCCCC2)n1 (stereo unspecified),1,4,i,x,-14,6,-17,-12,
CN(C)c1ccc(NC(=O)CN2CCN(CC(=O)Nc3ccc(F)cc3)CC2)cc1,0,-1,i,-14,9,x,0,-15,
CCOC(=O)CSc1nnc(C2CCCCC2)n1C,1,1,i,-17,-6,-18,-15,-6,
O=C(CSc1n[nH]c(-c2cccnc2)n1)Nc1ccnc2ccccc12,-2,-4,i,-12,4,12,-1,-4,
O=C(NC1=NCCS1)c1cc(-c2cccc(Br)c2)nc2ccccc12,1,-4,i,x,-2,12,-9,x,

# 17 consecutive records already listed, for reference:
SMILES,MT1-MMP act inh,MT1-MMP act inh RFP,Rce1 inhib,Yeast UUG start,PABP polyA inh,Env fusion inh,eIF4H inh,CSC inhib,others
O=C(NN=Cc1cc(Br)c(O)c(Br)c1)c1ccccc1NS(=O)(=O)c1cccs1,6,5,x,-15,x,0,x,11,
COc1cccc(/C=N/NC(=O)c2c(C)nc3ccc(Cl)cn23)c1O,-7,-8,i,-25,2,-43,6,71,
O=C(O)c1cc2c(ccc3ccccc32)o1,-4,-1,i,-16,-2,x,-8,-13,
CC(Sc1ncnc2c1cnn2-c1ccccc1)C(=O)NCC1CCCO1 (stereo unspecified),-1,-5,i,-9,-13,-7,-13,x,
CN(C1CCCCC1)S(=O)(=O)c1ccc(SCC(N)=O)nc1,-1,4,x,-4,x,-13,x,x,
Cc1cccc(C)c1OC(=O)CSc1nnc(-c2ccccc2)o1,0,3,i,-21,-4,x,-10,14,
CC1(C)CC2(CCO1)OC(=O)CC2C(=O)Nc1ccc(Br)cc1 (stereo unspecified),1,1,i,-9,7,5,14,-3,
CS(=O)(=O)c1ccc(C(=O)NC(Cc2ccccc2)c2ccccc2)cc1 (stereo unspecified),-1,-3,i,-3,4,-5,0,-2,
O=C(O)c1ccc2c(c1)C(=O)/C(=C\c1ccco1)C2=O,-2,1,i,x,-10,-10,107,8,eIF4H inh retest=16;PABP polyA inh retest=39
O=C(c1ccccc1)c1cc2cc(Cl)ccc2[nH]1,-5,-5,i,-13,3,-34,-3,0,
O=C(/C=C/c1ccc(Br)cc1)NC(=O)c1ccccc1O,0,-6,x,8,-5,-98,-4,-12,
Cn1cc(C(=O)Nc2ccc(F)c(F)c2)cn1,-2,3,i,9,-8,x,-9,x,
CN(C)c1cccc(C(=O)OCC(=O)N2CCc3ccccc3C2)c1,0,1,i,x,9,2,-2,11,
O=C(COc1ccc([N+](=O)[O-])cc1)Nc1nc(-c2ccccn2)cs1,-23,1,i,-26,x,43,x,55,
C/C(=C1/SC(N2CC(C)OC(C)C2)=NC1=O)c1ccccc1 (stereo unspecified),-3,-1,i,-2,-5,-33,-1,-3,
Cc1csc(SC(C)C(=O)NCC2CCCCC2)n1 (stereo unspecified),1,4,i,x,-14,6,-17,-12,
CN(C)c1ccc(NC(=O)CN2CCN(CC(=O)Nc3ccc(F)cc3)CC2)cc1,0,-1,i,-14,9,x,0,-15,
